Screening data deposited in PubChem by ICCB-Longwood Screening Facility, Harvard Medical School.
CapD inh = Bacillus anthracis CapD inhibitors, primary screen, biochemical, fluorescence intensity. CapD gamma-glutamyltranspeptidase (Bacillus anthracis Ames Ancestor). purified CapD enzyme, fluorescence intensity read-out; stronger effect = lower value; some hits fall short of the stated cut. z-score (concentration not given with the values). actives 0.23% (n = 140,000). AID 492967, 2010;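 active = z-score under -4 in either of two replicates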;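 note: stock transfer was 100 nL into about 40 µL; score is relative to mean and spread of the plate; one replicate is shown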
AID504770 = growth inhibition of E. coli YBA685, primary screen, V. cholerae RctB inhibitors. E. coli YBA685 rctB-dependent plasmid, OD600 growth, 3 h; stronger effect = lower value. z-score (no concentration beside the values). actives 0.27% (n = 130,000). AID 504770, 2011;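 active = z-score under -2 on both plates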;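 note: wells of about 30 µL received 100 nL stock; score is relative to mean and SD of the test wells; the first replicate is given; strong numbers were not always called active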
Numbers without * were called inactive; . = not tested or not shown; & = joins results of further samples.

SMILES	CapD inh	AID504770
CCOc1ccc(-n2c(=S)sc3c2nc(SCC(=O)c2ccccc2)n2c4ccccc4nc32)cc1	-0.205	.
CC1CCC(NC(=O)C(C)n2ncn3cccc3c2=O)CC1 (stereo unspecified)	-0.19	-0.1
Cc1[nH]c2ccc(C(=O)OCC(=O)NC3CC3)cc2c1C	.	0.15
O=C(Nc1ccc(-c2n[nH]c(=S)o2)cc1)c1ccccc1	2.95	-0.6
COc1ccc(CNCc2ccc3c(c2)OCO3)cc1	0.24	0
CCn1c(=O)c(C(=O)CSc2nnnn2Cc2cccs2)c(N)n(Cc2ccccc2)c1=O	.	0.6
CC1(C)Oc2ccc(C(=O)Nc3ccccc3)cc2N(CC(=O)N2CCCC2)C1=O	.	2.75
O=C(Cc1csc(N2CCCC2=O)n1)Oc1ccc2c(c1)OCO2	.	-0.15
CCN(CC)c1c(-c2ccccc2)c2cc(Br)ccc2[nH]c1=O	0.335	0.65
O=[N+]([O-])c1ccc(Sc2n[nH]c(=S)s2)c([N+](=O)[O-])c1	-0.87	.
COc1ccc2c(c1)nc(SCc1ccccc1)n2C	-0.265	-0.8
C=CCN(CC=C)C(=S)Nc1ccc(OC)cc1	.	0.6
CSc1ccccc1NC(=O)c1ccc(N2CC3CC(C2)c2cccc(=O)n2C3)c(NC(=O)/C=C/c2ccccc2)c1 (stereo unspecified)	-0.355	.
FC(F)(F)c1cc(-c2nnc(-c3ccc(Cl)cc3)o2)cc(C(F)(F)F)c1	0.135	.
Cc1nc2ccccc2n1CCOc1ccc(Br)cc1	-0.225	-0.4
O=C(O)COc1ccc2c(=O)c(-c3cscn3)coc2c1	0.805	0.5
O=C1C2C3C=CC(C3)C2C(=O)N1CN1CCCCCC1 (stereo unspecified)	-0.51	0.9
Cc1cc(C)n(-c2nc(Nc3ccccc3)nc(-n3nc(C)cc3C)n2)n1	-0.765	.
Cc1cc2nc(Sc3ccccc3Cl)cc(=O)n2o1	.	-0.9
Cc1cccc(C)c1OCC(=O)Nc1c(C)nn(C)c1C	-0.555	-0.9
CC12CCCC(=O)N1C(COC(=O)N1CCc3c([nH]c4ccccc34)C1)C(c1ccccc1)O2 (stereo unspecified)	0.51	.
CCC(=O)N(CCSCc1cc2cccc3c2n(c1=O)CCC3)Cc1ccccn1	3.8	.
Cn1c2c(c3ccccc31)/C(=N/OC(=O)c1ccc(Cl)cc1)CCC2	-0.31	.
O=C(NCc1ccc(-c2csnn2)cc1)OCC1CCCN(Cc2c(Cl)cccc2Cl)C1 (stereo unspecified)	-0.585	.
Nc1ncnc2c1ncn2Cc1ccccc1	0.44	-0.1
O=C(/C=C/c1cc2c(cc1Br)OCO2)NCc1ccc(F)cc1	1.93	.
COc1ccc(C2/C(=C(/O)c3ccc([N+](=O)[O-])cc3)C(=O)C(=O)N2c2ccccc2)cc1OC (stereo unspecified)	-0.275	.
CSc1cc(-c2ccc(Cl)cc2)c(C(=O)Nc2ccc(F)cc2F)s1	18.5	.
O=C1c2ccccc2-c2cc(=O)n(C3CCCCC3)c3ccc(Br)c1c23	-0.22	.
O=P(O)(NC1CCCCC1)NC1CCCCC1	.	2.15
O=C(NCC1OCCc2ccccc21)c1ccc(NC(=O)c2ccco2)cc1 (stereo unspecified)	-0.07	-1
O=C(O)/C=C/c1coc2ccccc2c1=O	0.345	0.25
CC(C)CC(NC(=O)c1ccc(Cl)cc1Cl)C(=O)O (stereo unspecified)	-0.495	-0.15
O=C1C=CC(=CN(O)c2ccccc2)C=C1	-2.31	-0.15
N#C/C(C(=O)N1CCCC1)=c1/s/c(=C\c2ccccn2)c(=O)n1-c1ccccc1	.	1.7
Cc1cc(NC(=O)c2cc3ccc4cccnc4c3[nH]2)no1	1.21	0.55
S=c1nc[nH]c2c1nnn2Cc1ccccc1Cl	-2.9	0.95
O=C(Cc1ccccc1)OCC(=O)C12CC3CC(CC(C3)C1)C2	-0.06	-0.25
O=C(NCc1cccs1)C1CCC(CNS(=O)(=O)c2ccccc2)CC1 (stereo unspecified)	-0.31	-0.8
CCOc1ccc(NC(=O)c2sc3ncnc(N4CCCCC4)c3c2C)cc1	0.66	.
COc1ccc(OCC(O)CN)cc1 (stereo unspecified)	0.04	.
Clc1ccc(-c2nnc(SCc3nc(-c4ccccc4)no3)o2)cc1	-0.475	0.1
Cc1ccc(NC(=O)CCS(=O)(=O)c2cc3[nH]c(=O)c(=O)[nH]c3cc2C)cc1	4.44	0.55
CN(CCO)S(=O)(=O)c1ccc2c(c1)C(=O)c1cc(S(=O)(=O)N(C)CCO)ccc1-2	-0.33	-0.45
CCOc1ccc2nc(NC(=O)C(CC)CC)sc2c1	-0.145	-0.2
CCCC(CCC)C(=O)Nc1cccc(-c2cn3c(n2)SCC3)c1	.	1.3
Cc1ccc(S(=O)(=O)NC(=O)Nc2ccc(C(F)(F)F)nc2C)cc1	-0.445	.
CS(=O)(=O)c1scc(-c2cccs2)c1C#N	1.27	-0.45
CCOC(=O)c1c(C)oc2ccc(OC(=O)NC(=O)N(C3CCCCC3)S(C)(=O)=O)cc12	.	-1.05
Cc1ccc(-c2nn(-c3ccccc3)cc2C2SCC(=O)N2Cc2ccccc2)o1 (stereo unspecified)	-0.21	.

(more compounds)
SMILES	CapD inh	AID504770
COc1ccc(C2(c3ncc(C(F)(F)F)cc3Cl)CCC(=O)NC2=O)cc1 (stereo unspecified)	-0.18	.
COC(=O)C(Cc1cn(C(c2ccccc2)(c2ccccc2)c2ccccc2)cn1)NC(=O)c1ccc(NC(C)=O)cc1 (stereo unspecified)	0.255	.
Cc1cc(C)c2c(c1)-c1c(sn(-c3ccc(Cl)cc3)c1=S)C(C)(C)N2	-0.42	.
COc1ccccc1OCc1nc2ccccc2s1	-0.035	0.55
CC1(C(=O)O)NC(c2cc(Br)ccc2O)C2C(=O)N(c3ccccc3)C(=O)C21 (stereo unspecified)	0.365	0.05
CC(C)(C)C(=O)N(Cc1cccnc1)Cc1ccc(Cl)cc1Cl	-0.865	-0.7
COc1cc(OC)c(/C=c2/sc3n(c2=O)C(N)=C(C#N)C(c2cc(Br)c(OC)cc2OC)C=3C#N)cc1Br (stereo unspecified)	-0.26	.
CCN(CC)S(=O)(=O)c1cccc(C(=O)Nc2ccc(I)cc2)c1	-0.095	0.15
CC1CCCCC1NC(=O)COC(=O)c1ccc(N(C)C)cc1 (stereo unspecified)	.	2.4
CC1(C)CN=C(NCCNC2=NCC(C)(C)S2)S1	0.165	0
O=C(Nc1nc(-c2ccc(Cl)s2)cs1)C1=COCCO1	-0.875	-0.2
O=C(CSc1nnc(CSCc2cccc3ccccc23)n1-c1ccccc1)c1ccc(C(F)(F)F)cc1	0.265	.
c1ccc(-c2nnc(CN3CCCc4ccccc43)o2)cc1	0.18	-0.85
CN(C)CCCn1c(=N)n(CC(O)C(C)(C)C)c2ccccc21 (stereo unspecified)	-0.05	-0.4
CCOC(=O)c1cnc(Nc2nc3ccccc3o2)nc1CSC(=S)N1CCCCC1	-0.015	0
Sc1nc2c(Cl)c(Cl)c(Cl)cc2o1	-2.29	2.15
COc1ccc(S(=O)(=O)NCc2cccnc2)c2ccccc12	0.775	1.05
O=C(N=c1nc2ccccn2s1)c1ccccc1	0.21	-0.2
O=C(OCc1cccc(Cl)c1)c1ccccc1O	.	0
CCOC(=O)C1CCCN(c2ncnc3scc(-c4ccccc4)c23)C1 (stereo unspecified)	-0.265	.

16 entries from above, in markdown:
| canonical_smiles | CapD inh | AID504770 |
| --- | --- | --- |
| CCOc1ccc(-n2c(=S)sc3c2nc(SCC(=O)c2ccccc2)n2c4ccccc4nc32)cc1 | -0.205 | . |
| CC1CCC(NC(=O)C(C)n2ncn3cccc3c2=O)CC1 (stereo unspecified) | -0.19 | -0.1 |
| Cc1[nH]c2ccc(C(=O)OCC(=O)NC3CC3)cc2c1C | . | 0.15 |
| O=C(Nc1ccc(-c2n[nH]c(=S)o2)cc1)c1ccccc1 | 2.95 | -0.6 |
| COc1ccc(CNCc2ccc3c(c2)OCO3)cc1 | 0.24 | 0 |
| CCn1c(=O)c(C(=O)CSc2nnnn2Cc2cccs2)c(N)n(Cc2ccccc2)c1=O | . | 0.6 |
| CC1(C)Oc2ccc(C(=O)Nc3ccccc3)cc2N(CC(=O)N2CCCC2)C1=O | . | 2.75 |
| O=C(Cc1csc(N2CCCC2=O)n1)Oc1ccc2c(c1)OCO2 | . | -0.15 |
| CCN(CC)c1c(-c2ccccc2)c2cc(Br)ccc2[nH]c1=O | 0.335 | 0.65 |
| O=[N+]([O-])c1ccc(Sc2n[nH]c(=S)s2)c([N+](=O)[O-])c1 | -0.87 | . |
| COc1ccc2c(c1)nc(SCc1ccccc1)n2C | -0.265 | -0.8 |
| C=CCN(CC=C)C(=S)Nc1ccc(OC)cc1 | . | 0.6 |
| CSc1ccccc1NC(=O)c1ccc(N2CC3CC(C2)c2cccc(=O)n2C3)c(NC(=O)/C=C/c2ccccc2)c1 (stereo unspecified) | -0.355 | . |
| FC(F)(F)c1cc(-c2nnc(-c3ccc(Cl)cc3)o2)cc(C(F)(F)F)c1 | 0.135 | . |
| Cc1nc2ccccc2n1CCOc1ccc(Br)cc1 | -0.225 | -0.4 |
| O=C(O)COc1ccc2c(=O)c(-c3cscn3)coc2c1 | 0.805 | 0.5 |

The results go on.
SMILES	CapD inh	AID504770
CCOC(=O)C1CCCc2c1[nH]c1c(C(=O)O)cccc21 (stereo unspecified)	-0.435	0.1
COc1cccc(C(Nc2ccccn2)c2c(C)[nH]c3ccccc23)c1 (stereo unspecified)	0.17	0.05
Clc1cccc(Nc2nc(-c3ccncc3)nc3ccccc23)c1	3.25	.
COC(=O)COc1ccc(=O)n(-c2ccccc2)n1	-0.165	-0.8
COc1ccc(O)c(C(=O)c2cnn(S(=O)(=O)c3ccc(C)cc3)c2)c1	.	-0.2
COc1ccc(C2C(C(=O)OC(C)C)=C(C)N=c3s/c(=C/c4cc([N+](=O)[O-])ccc4N4CCN(C)CC4)c(=O)n32)cc1 (stereo unspecified)	-1.19	.
OC(c1ccccc1)C(F)(F)C1(F)OC(F)(F)C(F)(F)C1(F)F (stereo unspecified)	-0.015	0
Cc1ccc(CNCC(C)O)s1 (stereo unspecified)	.	-0.9
Cc1cc(C(=O)Cn2cnc3sccc3c2=O)c(C)n1-c1ccc2c(c1)OCO2	.	0.95
CC1(C)Cc2ccccc2/C(=C/[N+](=O)[O-])N1	0.005	.
CCOC(=O)/C(C#N)=C(O)/C(=C/c1ccccc1)NC(=O)c1ccccc1	0.695	.
O=C(Nc1ccc2c(c1)OCO2)c1cc(Cl)sc1Cl	-0.395	0.45
CC(=O)N1CCC(=O)c2cc3ccccc3cc21	-0.3	.
O=C1COc2ccccc2N1Cc1ccccc1Cl	-0.135	-0.65
O=C1CCCCN1c1ccc(C(F)(F)F)cc1	-0.635	-0.35
CC(C)CCN(Cc1ccco1)S(=O)(=O)c1ccc(-c2cc(C(F)(F)F)no2)s1	-0.345	-0.35
CCc1c(C)c2ccc(OCC(=O)C(C)(C)C)c(C)c2oc1=O	8.35	0.15
COc1ccc(C(=O)Nc2ccc3c(c2)nc2n3CCN(Cc3ccccc3)C2)cc1	14.9	1.6
CC(C)C(=O)c1ccc(OCCOc2ccc(C#N)cc2)cc1	0.04&0.28	-0.45&0.75
Cc1cc(/C=N/NC(N)=S)c(C)n1CC(F)(F)F	.	-0.4
Cc1ccc(C)c(N2C(=O)/C(=C/c3ccc(-c4cc(Cl)ccc4Cl)o3)C=C2c2ccccc2)c1	-0.135	.
O=C1CC(C(=O)O)C(c2ccccc2)O1 (stereo unspecified)	.	-0.65
O=S(=O)(NCCc1ccccc1)c1cccs1	.	0.8
Clc1cccc(Cl)c1-c1cc(-c2ccccn2)on1	0.53	-0.7
O=C(NCC1CCCCC1)c1ccc(Br)o1	0.115	0.3
CCCCCc1ccc(Nc2cn[nH]c(=O)c2Cl)cc1	.	0.75
COC(=O)/C(C#N)=C1\NC(C)=NC(SC)=C1C#N	-0.865	0.35
Fc1ccc(N=Cc2ccc3c(c2)OCO3)cc1	-0.755	.
Cc1nnc(SCc2nc3sc4c(c3c(=O)[nH]2)CCCC4)n(N)c1=O	.	0.25
CCOP(=O)(OCC)C(NC(=O)c1cccc(C)c1)C(Cl)(Cl)Cl (stereo unspecified)	-0.045	.
COc1ccc(NC(=O)COC(=O)c2ccc(-n3cnnn3)cc2)cc1Cl	.	0.5
COCCNC(=O)c1cc(-c2ccccn2)nc2ccc(S(=O)(=O)N3CCC(C)CC3)cc12	-1.03	-0.5
C=CCN=C1SCC(=O)N1S(=O)(=O)c1ccccc1	0.35	-0.35
CC(C)(C)Nc1nc(Cl)nc(NCCN2CCOCC2)n1	-0.605	.
CCOC(=O)c1nc(N2CCCC(C)C2)c2ccccc2n1 (stereo unspecified)	-1.72	-0.9
Clc1cc(Cl)c(NN=C2CCCC2)c(Cl)c1	.	1.6
COc1ccc(-c2c(-c3ccccc3)sc(=Nc3ccccc3)n2-c2ccccc2)cc1	0.72	.
COC(=O)c1sc(SC)c2c1CC(C)(C)CC2=O	-0.37	.
CCOC(=O)NNC(=S)Nc1cccc(C(F)(F)F)c1	-0.28	.
CC1(C)CC(=O)C2=C(C1)c1c(ccc3ccccc13)NC2c1ccccc1OCc1ccc(Cl)cc1Cl (stereo unspecified)	25.2	.
Cc1nnc(SCC(=O)N2N=C3/C(=C/c4ccco4)CCCC3C2c2ccco2)n1-c1ccccc1 (stereo unspecified)	.	-0.25
CCOC(=O)c1oc2ccccc2c1NC(=O)CCSc1ccccc1	0.255	0.1
Cc1noc(C)c1CS	.	-1.25
O=C(Nc1cccc(C(F)(F)F)c1)c1ccc2nc[nH]c2c1	0.57	0.2
O=C1c2ccccc2S(=O)(=O)N1CC(O)COc1ccc([N+](=O)[O-])cc1 (stereo unspecified)	-0.225	.
O=C(c1cccc2c1NC(c1ccc(Br)cc1)C1CC=CC21)N1CCOCC1 (stereo unspecified)	-0.355	.
CCCc1ccc(NC(C)=O)cc1	-0.165	.
COC(=O)C1C(=O)NC(SCc2ccccc2)=C(C#N)C1c1ccccc1 (stereo unspecified)	-0.325	-0.95
